# Env fusion inh: inhibitors of HIV Env-mediated cell fusion; actives 1.1% (n = 360,000); HeLa-JRFL Env/CEM21 cell fusion, luciferase; inhibition, % at 12.3 µM;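 active = mean replicate inhibition score of at least 50 and every replicate individually at or above 50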;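 note: 0% = plate neutral controls and 100% = maraviroc near 300 nM; one replicate is shown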
# UUG fidelity: alters start codon recognition fidelity in yeast | AID 602363 | actives 0.13% (n = 350,000) | activity score, % at 18.7 µM | S. cerevisiae UUG-firefly luciferase reporter, luminescence/redox ratio;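 active = replicate mean at a twofold rise or more, about +100% in these data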;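 note: firefly luciferase made from a UUG start codon reports start codon fidelity; reporter light over untreated wells divided by growth signal over untreated wells; some hits fall short of that in this replicate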
# * = called active by the depositor; [ ] = another dose, or the depositor's remark. This is a subset; count on the stated rates, not on these rows.
Env fusion inh	UUG fidelity	structure
0[16.7 µM]	-2	COc1ccc(S(=O)(=O)Nc2ccc3c(c2)CC(=O)N([C@@H](C)CO)C[C@H](C)[C@@H](CN(C)Cc2ccccc2)O3)cc1
-15[16.7 µM]	-4	COCC#Cc1ccc2c(c1)O[C@H](CN(C)C(=O)Nc1ccc(OC)cc1)[C@@H](C)CN([C@@H](C)CO)S2(=O)=O
-37[16.7 µM]	-8	C[C@@H]1CN([C@H](C)CO)C(=O)c2cccc(NC(=O)C3CCCCC3)c2O[C@@H]1CN(C)CC1CCCCC1
-3[16.7 µM]	1	O=C(CCN1CCCCC1)N[C@H]1C=C[C@H](CC(=O)N2CCC(Cc3ccccc3)CC2)O[C@H]1CO
0[16.7 µM]	-17	COc1ccccc1NC(=O)N[C@H]1C=C[C@H](CC(=O)N[C@@H](C)c2ccccc2)O[C@@H]1CO
14[16.7 µM]	9	C[C@@H]1CN([C@@H](C)CO)C(=O)c2cc(NC(=O)Nc3ccccc3)ccc2O[C@@H]1CN(C)Cc1ccc(Oc2ccccc2)cc1
11[16.7 µM]	0	COc1ccc(-c2cnc3c(c2)C(=O)N([C@@H](C)CO)C[C@H](C)[C@@H](CN(C)C(=O)CN(C)C)O3)cc1
23[16.7 µM]	28	Cc1ccc(S(=O)(=O)Nc2ccc3c(c2)C(=O)N([C@@H](C)CO)C[C@H](C)[C@H](CN(C)CC2CCCCC2)OCCCC[C@@H](C)O3)cc1
8[16.7 µM]	-7	COc1ccccc1-c1cnc2c(c1)C(=O)N([C@H](C)CO)C[C@H](C)[C@H](CN(C)Cc1cccnc1)O2
-5[16.7 µM]	-12	O=C(C[C@@H]1CC[C@@H](NC(=O)Nc2ccccc2F)[C@H](CO)O1)NCc1ccc(Cl)cc1

# As a short view, some entries already given:
Env fusion inh	UUG fidelity	structure
0[16.7 µM]	-2	COc1ccc(S(=O)(=O)Nc2ccc3c(c2)CC(=O)N([C@@H](C)CO)C[C@H](C)[C@@H](CN(C)Cc2ccccc2)O3)cc1
-15[16.7 µM]	-4	COCC#Cc1ccc2c(c1)O[C@H](CN(C)C(=O)Nc1ccc(OC)cc1)[C@@H](C)CN([C@@H](C)CO)S2(=O)=O
-37[16.7 µM]	-8	C[C@@H]1CN([C@H](C)CO)C(=O)c2cccc(NC(=O)C3CCCCC3)c2O[C@@H]1CN(C)CC1CCCCC1
-3[16.7 µM]	1	O=C(CCN1CCCCC1)N[C@H]1C=C[C@H](CC(=O)N2CCC(Cc3ccccc3)CC2)O[C@H]1CO
0[16.7 µM]	-17	COc1ccccc1NC(=O)N[C@H]1C=C[C@H](CC(=O)N[C@@H](C)c2ccccc2)O[C@@H]1CO
14[16.7 µM]	9	C[C@@H]1CN([C@@H](C)CO)C(=O)c2cc(NC(=O)Nc3ccccc3)ccc2O[C@@H]1CN(C)Cc1ccc(Oc2ccccc2)cc1
11[16.7 µM]	0	COc1ccc(-c2cnc3c(c2)C(=O)N([C@@H](C)CO)C[C@H](C)[C@@H](CN(C)C(=O)CN(C)C)O3)cc1
23[16.7 µM]	28	Cc1ccc(S(=O)(=O)Nc2ccc3c(c2)C(=O)N([C@@H](C)CO)C[C@H](C)[C@H](CN(C)CC2CCCCC2)OCCCC[C@@H](C)O3)cc1
8[16.7 µM]	-7	COc1ccccc1-c1cnc2c(c1)C(=O)N([C@H](C)CO)C[C@H](C)[C@H](CN(C)Cc1cccnc1)O2
-5[16.7 µM]	-12	O=C(C[C@@H]1CC[C@@H](NC(=O)Nc2ccccc2F)[C@H](CO)O1)NCc1ccc(Cl)cc1

# Following part:
Env fusion inh	UUG fidelity	structure
9[16.7 µM]	3	C[C@H](CO)N1C[C@H](C)[C@H](CN(C)Cc2ccc(-c3ccccc3)cc2)Oc2ncc(C#CCN(C)C)cc2C1=O
29[16.7 µM]	-26	Cc1ccc(S(=O)(=O)N(C)C[C@@H]2Oc3cc(-c4cccc(F)c4)ccc3S(=O)(=O)N([C@H](C)CO)C[C@H]2C)cc1
19[16.7 µM]	-23	O=C(C[C@H]1C[C@@H]2c3cc(NC(=O)Nc4ccccc4F)ccc3O[C@@H]2[C@H](CO)O1)NCc1ccncc1
-19[16.7 µM]	12	NC(=O)[C@@H]1[C@H]2C(=O)O[C@H](c3ccccc3)[C@H](c3ccccc3)N2[C@H](c2ccc(O)cc2)[C@@]12C(=O)Nc1ccc(C#CC3(O)CCCCCC3)cc12
16[16.7 µM]	3	Cc1noc(C)c1NC(=O)Nc1ccc2c(c1)C(=O)N([C@@H](C)CO)C[C@@H](C)[C@H](CN(C)Cc1ccc(Cl)c(Cl)c1)OCCCC[C@H](C)O2
-18[16.7 µM]	11	Cc1noc(C)c1S(=O)(=O)Nc1ccc2c(c1)C(=O)N([C@H](C)CO)C[C@H](C)[C@H](CN(C)C(=O)NC(C)C)O2
4[16.7 µM]	15	Cc1noc(C)c1NC(=O)N(C)C[C@H]1Oc2ncc(C#CC3CCCC3)cc2C(=O)N([C@H](C)CO)C[C@H]1C
0[16.7 µM]	-9	COCCNC(=O)C[C@@H]1C[C@@H]2c3cc(N(C)C)ccc3O[C@@H]2[C@H](CO)O1
-22[16.7 µM]	-7	O=C(C[C@@H]1C=C[C@@H](NC(=O)Nc2cc(F)ccc2F)[C@@H](CO)O1)NCCCN1CCOCC1
-5[16.7 µM]	1	CCC(=O)N(C)C[C@H]1Oc2ncc(-c3ccc(C(=O)N(C)C)cc3)cc2C(=O)N([C@H](C)CO)C[C@H]1C
-5[16.7 µM]	16	C/C=C/c1ccc2c(c1)O[C@@H](CN(C)C(=O)NCCC)[C@H](C)CN([C@H](C)CO)S2(=O)=O
27	-3	C[C@H]1CN([C@@H](C)CO)C(=O)CCCn2nncc2CO[C@@H]1CN(C)Cc1ccc2cccnc2c1
-18[16.7 µM]	-8	C[C@@H]1CN([C@H](C)CO)C(=O)c2cccc(NS(=O)(=O)c3ccccc3)c2O[C@@H]1CN(C)S(=O)(=O)c1ccc(F)cc1
-1[16.7 µM]	-3	C[C@@H]1CCCCO[C@@H](CN(C)C(=O)Cc2ccccc2)[C@H](C)CN([C@@H](C)CO)C(=O)c2cc(NC(=O)Nc3ccc(C(F)(F)F)cc3)ccc2O1
8[16.7 µM]	2	C[C@@H]1CN([C@@H](C)CO)C(=O)c2cc(N(C)C)ccc2O[C@@H]1CN(C)C(=O)Nc1cccc2ccccc12
-3[16.7 µM]	-5	C[C@@H]1CN([C@@H](C)CO)C(=O)c2cc(-c3ccccc3)cnc2O[C@@H]1CN(C)C(=O)Nc1ccc2c(c1)OCO2
11[16.7 µM]	-1	Cc1noc(C)c1NC(=O)Nc1ccc2c(c1)C(=O)N([C@H](C)CO)C[C@@H](C)[C@H](CN(C)Cc1ccc(C(F)(F)F)cc1)OCCCC[C@H](C)O2
22[16.7 µM]	-9	O=C(C[C@H]1CC[C@@H](NC(=O)Nc2ccc(F)cc2)[C@H](CO)O1)NCc1ccccn1
13[16.7 µM]	2	CC(C)NC(=O)N(C)C[C@@H]1Oc2c(NC(=O)c3ccc(-c4nccs4)cc3)cccc2C(=O)N([C@@H](C)CO)C[C@H]1C
-3[16.7 µM]	-9	C[C@@H]1CCCCO[C@@H](CN(C)S(=O)(=O)c2ccc(Cl)cc2)[C@@H](C)CN([C@@H](C)CO)C(=O)c2cc(NC(=O)Nc3ccc4c(c3)OCO4)ccc2O1
-6[16.7 µM]	12	C[C@H]1CN([C@@H](C)CO)C(=O)Cc2cc(NC(=O)Cc3ccccc3)ccc2O[C@H]1CN(C)C(=O)NC1CCCCC1
24[16.7 µM]	-2	C[C@H](CO)N1C[C@H](C)[C@@H](CN(C)Cc2ccccc2)Oc2ncc(-c3cccc(F)c3)cc2C1=O
9[16.7 µM]	12	CCC(=O)N(C)C[C@H]1Oc2cc(-c3cccc(C#N)c3)ccc2S(=O)(=O)N([C@@H](C)CO)C[C@@H]1C
-4[16.7 µM]	5	N#C[C@@H]1[C@H](c2ccc(C3=CCCC3)cc2)[C@H](CO)N1C(=O)C1CC1
4[16.7 µM]	-2	C[C@H](CO)N1C[C@H](C)[C@@H](CN(C)C(=O)c2ccncc2)OCCCC[C@H](C)Oc2ccc(NS(C)(=O)=O)cc2C1=O
-7[16.7 µM]	-10	O=C(C[C@@H]1C=C[C@H](NC(=O)C2CCC2)[C@@H](CO)O1)NCc1ccccc1Cl
14[16.7 µM]	-9	CNC[C@H]1Oc2c(NC(=O)C3CCOCC3)cccc2C(=O)N([C@@H](C)CO)C[C@@H]1C
-8[16.7 µM]	11	C[C@@H]1CCCCO[C@H](CN(C)Cc2ccc(Cl)c(Cl)c2)[C@@H](C)CN([C@@H](C)CO)C(=O)c2cc(NC(=O)C3CCCCC3)ccc2O1
15[16.7 µM]	-4	COc1ccc(NC(=O)O[C@H]2[C@H](OC(=O)Nc3ccccc3)[C@H](OC(=O)Nc3ccccc3)[C@@H](OC)O[C@@H]2CO)cc1
5[16.7 µM]	-14	C[C@@H]1CN([C@@H](C)CO)S(=O)(=O)c2ccc(-c3ccc(C#N)cc3)cc2O[C@H]1CN(C)C(=O)Nc1cc(F)ccc1F
-23[16.7 µM]	-10	COc1ccc(NC(=O)Nc2ccc3c(c2)C(=O)N([C@H](C)CO)C[C@H](C)[C@@H](CN(C)C(=O)Nc2cccc4ccccc24)OCCCC[C@@H](C)O3)cc1
-4[16.7 µM]	-6	C/C=C/c1cnc2c(c1)C(=O)N([C@@H](C)CO)C[C@H](C)[C@@H](CN(C)C(=O)NC1CCCC1)O2
11[16.7 µM]	3	C[C@@H]1CN([C@H](C)CO)S(=O)(=O)c2ccc(C#CC3CCCC3)cc2O[C@@H]1CN(C)Cc1ccccc1C(=O)O
8[16.7 µM]	-7	C[C@@H]1CN([C@H](C)CO)C(=O)c2cc(C3=CCCCC3)cnc2O[C@@H]1CN(C)C(=O)Cc1ccncc1
-54[16.7 µM]	-13	COc1ccc(S(=O)(=O)N(C)C[C@H]2OCCCC[C@@H](C)Oc3ccc(NS(=O)(=O)c4cccs4)cc3C(=O)N([C@@H](C)CO)C[C@@H]2C)cc1
18[16.7 µM]	-12	C[C@@H]1CCCCO[C@@H](CN(C)S(=O)(=O)c2ccc(Cl)cc2)[C@H](C)CN([C@H](C)CO)C(=O)c2cc(NS(=O)(=O)c3cccs3)ccc2O1
24[16.7 µM]	-3	Cc1cc(C(=O)Nc2cccc3c2O[C@H](CN(C)Cc2ccccc2)[C@@H](C)CN([C@@H](C)CO)C3=O)n(C)n1
10[16.7 µM]	2	COc1ccc(CN(C)C[C@H]2Oc3c(NS(=O)(=O)c4cccs4)cccc3C(=O)N([C@@H](C)CO)C[C@@H]2C)cc1
4[16.7 µM]	-6	CO[C@H]1CN(C)C(=O)c2ccc(NS(C)(=O)=O)cc2OC[C@H](C)N(C(=O)C2CCCCC2)C[C@@H]1C
-7[16.7 µM]	-1	CC(C)CC#Cc1cnc2c(c1)C(=O)N([C@H](C)CO)C[C@@H](C)[C@@H](CN(C)C(=O)c1cnccn1)O2
-9[16.7 µM]	-5	CC(C)NC(=O)Nc1cccc2c1O[C@@H](CN(C)S(C)(=O)=O)[C@@H](C)CN([C@@H](C)CO)C2=O
15[16.7 µM]	8	COc1ccccc1NC(=O)N(C)C[C@@H]1Oc2ncc(C#CCC(C)C)cc2C(=O)N([C@@H](C)CO)C[C@H]1C
-9[16.7 µM]	43	C[C@@H]1CN([C@@H](C)CO)S(=O)(=O)c2ccc(C#CCC3CCCC3)cc2O[C@@H]1CN(C)C(=O)CN(C)C
3[16.7 µM]	-3	O=C(NCC[C@H]1CC[C@H](NC(=O)c2ccccc2F)[C@@H](CO)O1)c1ccc2c(c1)OCO2
8[16.7 µM]	-15	COC(=O)C(CC#Cc1ccc2c(c1)[C@]1(C(=O)N2)[C@H](c2ccc(OCCO)cc2)N2[C@H](c3ccccc3)[C@H](c3ccccc3)OC(=O)[C@H]2[C@@H]1C(=O)N1CCc2cc(OC)c(OC)cc2C1)C(=O)OC
11[16.7 µM]	-5	C[C@@H]1CN([C@@H](C)CO)S(=O)(=O)c2ccc(-c3ccncc3)cc2O[C@@H]1CN(C)C(=O)c1ccc2c(c1)OCO2
11[16.7 µM]	-13	O=C(N[C@H]1CC[C@@H](CC(=O)N2CCCCC2)O[C@@H]1CO)c1ccccn1
12[16.7 µM]	29	CC(C)C#Cc1ccc2c(c1)O[C@@H](CN(C)Cc1ccccc1)[C@H](C)CN([C@H](C)CO)S2(=O)=O
-3[16.7 µM]	12	CCCC#Cc1ccc([C@H]2[C@H](C#N)N(C(=O)C3CC3)[C@H]2CO)cc1
10[16.7 µM]	7	CC(C)NC(=O)Nc1ccc2c(c1)CC(=O)N([C@H](C)CO)C[C@@H](C)[C@@H](CN(C)C(=O)Nc1ccc3c(c1)OCO3)O2

# Next entries:
Env fusion inh	UUG fidelity	structure
19[16.7 µM]	8	C/C=C/c1ccc2c(c1)O[C@@H](CN(C)C(=O)c1ccc3c(c1)OCO3)[C@@H](C)CN([C@@H](C)CO)S2(=O)=O
3[16.7 µM]	3	COc1ccccc1NC(=O)N(C)C[C@H]1Oc2ncc(C#CCC(C)C)cc2C(=O)N([C@H](C)CO)C[C@@H]1C
-24[16.7 µM]	4	C[C@@H]1CN([C@@H](C)CO)C(=O)c2cc(NC(=O)C3CCCCC3)ccc2O[C@@H](C)CCCCO[C@H]1CN(C)CC1CCCCC1
0[16.7 µM]	3	C[C@@H]1CN([C@H](C)CO)C(=O)Cc2cc(NC(=O)C3CC3)ccc2O[C@@H]1CN(C)Cc1ccncc1
25[16.7 µM]	-26	C[C@H]1CN([C@@H](C)CO)C(=O)c2cc(C#CCN(C)C)cnc2O[C@@H]1CN(C)Cc1ccccc1F
9[16.7 µM]	23	COc1ccc(CN(C)C[C@H]2OCCCC[C@@H](C)Oc3ccc(NS(=O)(=O)c4ccc(F)cc4)cc3C(=O)N([C@H](C)CO)C[C@H]2C)cc1

# Assay outcomes from PubChem.
